# ClpP mod = qHTS Assay for Activators of ClpP; ATP-dependent Clp protease proteolytic subunit (Bacillus subtilis (strain 168)), P80244; purified B. subtilis ClpP, FRET peptide cleavage, 20 min; Potency, µM (titrated, usually from 57.5 µM), inactives show top-dose activity change, negative = active; hit rate 1.9% among 340,000; AID 651965, 2013; active = well fitted falling curve with a large enough effect; inconclusive = small, poorly fitted or top-dose-only effect; inactive = no such curve, though single readings can be large or run the other way; further: potency means the concentration at half of the fitted maximal effect; the source files actives as falling curves though it sought activators and does not explain the sign; nearly all actives have a fitted effect of over 65% in size; many hits overshoot -100%
# Target sequence (P80244 whole entry, looked up): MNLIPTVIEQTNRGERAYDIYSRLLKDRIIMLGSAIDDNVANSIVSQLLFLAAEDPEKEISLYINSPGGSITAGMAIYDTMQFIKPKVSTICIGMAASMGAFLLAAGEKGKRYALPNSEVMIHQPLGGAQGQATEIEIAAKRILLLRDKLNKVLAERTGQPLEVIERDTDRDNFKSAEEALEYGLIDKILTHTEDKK
#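 Buffer: 100 mM Tris/HCl pH8, 100 mM KCl, 0.05% low protease BSA, 2.5% glycerol, 0.01% Tween-20. ClpP 10 microg/mL final; 20 min RT; delta FRET normalized to ADEP and DMSO controls.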
# Sfp inh = blocks B. subtilis Sfp PPTase activity. Q9F4F7. Biochemical Sfp PPTase activity, qHTS. Potency, µM, for the others: max response, negative = inhibition, usual class: inhibitors. hit rate 3.5% among 310,000; active means well fitted inhibition curve with a large enough effect; inconclusive means small, poorly fitted or top-dose-only effect, or another doubt; inactive means no such curve, though single readings can be large or run the other way;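 further: the enzyme is Sfp with the accession as filed and its product quenches rhodamine fluorescence; potency means the concentration at half of the fitted maximal effect; 0% = enzyme reaction without inhibitor and -100% = no enzyme wells; top concentration of the series not given in the record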
#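 After 15 min at room temperature with compound, 15 nM Sfp received 5 uM rhodamine-CoA plus 12.5 uM BHQ-2-ybbR (50 mM Hepes pH 7.6, 10 mM MgCl2). Rate came from the fluorescence difference over 30 min, ex 525/em 598 nm.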
# Menin MLL FP FL = menin-MLL binding inhibition, fluorescein peptide; 290,000 tested, under 10 active; Fluorescence polarization, fluorescein-MLL peptide displacement from menin; FP activity change, % at 61.4 µM; AID 1766; inconclusive = falling polarisation curve, or a change in total fluorescence; inactive = total fluorescence flat and polarisation flat or rising; no compound was filed as active; the % refers to the polarisation; negative = inhibition;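 further: % of control where 0% means no effect; inhibitors lower the polarisation; unlabelled MLL peptide was the positive control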
# gsp ag = agonists of gsp mutant (McCune-Albright syndrome); Potency, µM (series often up to 76.9 µM), without a hit: top-dose activation (cAMP increase), actives largely listed as activators; gsp mutant cells, cAMP HTRF, 30 min; control for the full effect not named in the record; hit rate 0.13% among 340,000; active = well fitted activation curve with a large enough effect; inconclusive = small, poorly fitted or top-dose-only effect, or another doubt; inactive = no such curve, though single readings can be large or run the other way; cell line not stated here;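 further: phosphodiesterase inhibitor Ro 20-1724 added with compounds to block cAMP breakdown; potency means the concentration at half of the fitted maximal effect; nearly all actives have a fitted effect of over 60% in size; about a fifth of the inactives were tested at one dose only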
#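 Cells stably selected in G418 were plated at 2000/well, grown 16-24 hr, then given compounds in DMSO with the PDE inhibitor […] (300 uM solution added) for 30 min at 37C; cAMP was read by HTRF.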
# gsp antagonist = gsp mutant antagonism; gsp-mutant cells, cAMP HTRF, 30 min; control for the full effect not named in the record; hit rate 0.4% among 340,000; Potency, µM (titrated, usually from 76.9 µM), for the others: at the top dose activity change, negative = inhibition, actives largely listed as inhibitors; active = falling curve of any shape with a large fitted effect; inconclusive = falling curve, mostly with a smaller effect; inactive = flat or rising curve; cell line not stated here;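 further: intracellular cAMP measured with PDE inhibitor Ro 20-1724 present during compound exposure; potency means the concentration at half of the fitted maximal effect; on the % scale 0 is the no-effect control and ±100 the full control effect; nearly all actives have a fitted effect of over 65% in size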
#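 HTRF cAMP measurement after 30 min RT detection following 30 min, 37C compound treatment alongside […] (added as 300 uM solution) in G418-selected cells seeded at 2000/well and grown 16–24 h.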
# TRPML1 inh = inhibitors of human TRPML1 channel; TRPML1-inducible cells, Ca2+ dye fluorescence, FDSS; hits give low values; inhibition of EC80 agonist-evoked calcium signal; activity change, negative = inhibition, % (concentration not given with the values); hit rate 0.02% among 390,000; in the data active means activity change below about -50%; inconclusive means about -30% to -50%; inactive means above about -30%;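 further: stimulus is agonist 54-4 at its EC80 concentration; on the % scale 0 is the no-effect control and ±100 the full control effect; compound concentration not given in the record; the text of the record puts the active cut at -80%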
#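 Tet-induced TRPML1-DL cells loaded with Ca8 no-wash calcium dye were read kinetically on FDSS. Compound addition was followed by EC80 agonist 54-4 (4 uM final); inhibition was read over 110 s.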
# TRPV1 potentiator = human TRPV1 potentiation; potentiation, % at 8.33 µM; hit rate 0.02% among 320,000; AID 540277; TRPV1-expressing cells, Fluo-8 calcium influx, capsaicin EC20 potentiation; host cell line not named in the record; control for the full effect not named in the record; active means potentiation above 80%; inconclusive means 30% to 80%; inactive means below 30%; further: 0% is about no effect
# Target sequence (Q8NER1 whole entry, looked up): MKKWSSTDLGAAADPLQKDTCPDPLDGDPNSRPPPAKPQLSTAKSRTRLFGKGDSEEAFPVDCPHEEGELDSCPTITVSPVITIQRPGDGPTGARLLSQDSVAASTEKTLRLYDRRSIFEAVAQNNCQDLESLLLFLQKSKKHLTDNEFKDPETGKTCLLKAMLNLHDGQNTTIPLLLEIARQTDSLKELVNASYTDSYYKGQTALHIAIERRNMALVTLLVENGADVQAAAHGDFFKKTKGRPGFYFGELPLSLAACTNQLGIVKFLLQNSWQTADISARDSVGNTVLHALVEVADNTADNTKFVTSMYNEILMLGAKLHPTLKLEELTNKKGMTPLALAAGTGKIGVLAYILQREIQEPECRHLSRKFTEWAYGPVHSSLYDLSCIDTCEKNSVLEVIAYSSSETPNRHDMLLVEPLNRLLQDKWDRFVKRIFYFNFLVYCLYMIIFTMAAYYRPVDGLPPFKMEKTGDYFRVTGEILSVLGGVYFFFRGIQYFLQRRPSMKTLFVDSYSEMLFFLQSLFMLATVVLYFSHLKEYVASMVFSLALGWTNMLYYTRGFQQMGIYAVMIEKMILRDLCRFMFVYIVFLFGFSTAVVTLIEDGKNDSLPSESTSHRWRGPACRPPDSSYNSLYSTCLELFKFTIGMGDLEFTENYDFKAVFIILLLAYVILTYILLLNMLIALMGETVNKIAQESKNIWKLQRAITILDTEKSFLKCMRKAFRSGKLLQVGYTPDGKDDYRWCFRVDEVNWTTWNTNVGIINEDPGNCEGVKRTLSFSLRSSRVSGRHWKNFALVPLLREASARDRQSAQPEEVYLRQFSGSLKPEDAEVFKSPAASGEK
#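 TRPV1-expressing cells were cultured overnight at 35.5C and loaded with Fluo-8 calcium dye for 40 to 90 min at room temperature. After a 10 s baseline, compound was added and calcium influx was read kinetically for 3 min (ex 480/em 520 nm).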
# Numbers without * were called inactive; ? = inconclusive; . = no result given; [ ] = remark or other dose.
SMILES,ClpP mod,Sfp inh,Menin MLL FP FL,gsp ag,gsp antagonist,TRPML1 inh,TRPV1 potentiator
O=C(NNC(=O)C1CCCO1)c1ccc(Cl)cc1 (stereo not given),2.4%,16%,2.7,22%,12%,1,2
CN(C)/C=C/C(=O)c1cccc(Oc2ncccn2)c1,.,10%,1.4,-19%,2%,20,-4
O=C1/C(=C/c2ccc([N+](=O)[O-])cc2)C=C(c2ccccc2)N1c1ccc(O)cc1,-1.4%,-4%,-0.3,9%,-18%,-10,-2
COCCNC(=O)C(c1cccs1)N(CCc1ccccc1)C(=O)Cn1nnc2ccccc21 (stereo not given),2.0%,-5%,-0.9,-9%,8%,20,-2
Cc1ccc(C)c(OCCCN2CCc3ccccc3C2)c1,.,-10%,-1.2,-74%[inhibitor],8%,2,0
CCOC(=O)c1c(NC(=O)c2nn(CC)cc2Br)sc(C)c1C,35%,?,1.0,-43%[inhibitor],1%,19,-6
COc1ccc(CN2CCOCC2)cc1Br,-0.1%,8%,-0.6,0%,-14%,50,-3
COc1ccc(-c2csc(Nc3cccnc3)n2)cc1OC,2.0%,3%,-0.9,-30%,0%,-9,-3
CCOc1ccccc1NC(=O)c1ccc(Cl)c(NC(=O)CC(c2ccccc2)c2ccccc2)c1,-9.4%,13%,2.1,-58%[inhibitor],-4%,-7,8
O=C(CSc1nnc(-c2c[nH]c3ccccc23)n1-c1ccc(F)cc1)NCc1ccco1,-0.9%,3%,0.8,-2%,-14%,-16,?
CCOC(=O)c1ccc(NC(=O)N2CCCCC2)cc1,-2.3%,11%,6.3,1%,11%,-6,-16
CSCC[C@H](NC(=O)C1CCN(C(=O)[C@@H](N)Cc2ccccc2)CC1)C(=O)O,1.4%,22%,0.9,26%,15%,-14,1
CC(Oc1ccc(Cl)cc1Cl)c1nc(-c2ccc(NC(=O)c3ccncc3)cc2)no1 (stereo not given),-2.2%,1%,1.2,-21%,?,0,7
C/C(=N/OC(=O)c1c(-c2c(Cl)cccc2Cl)noc1C)c1cnccn1,.,9%,0.3,-5%[15.4 µM],-9%,6,-4
CCC(CC)C(=O)NCCNC(=O)C(CC)CC,0.0%,20%,1.4,0%,-4%,3,-12
O=[N+]([O-])c1ccc(-c2ccc(/C=N/n3cnnc3)o2)c(Br)c1,1.0%,-1%,4.5,0%,-14%,69,?
COc1cc(/C=C/C(=O)Nc2nc3ccc(S(=O)(=O)N(C)C)cc3s2)cc(OC)c1OC,7.9µM*,10%,2.4,8%[15.4 µM],2%,-6,10
Clc1cccc(Cl)c1CON/C=N/c1ncnc2sccc12,-2.6%,-10%,0.5,?,-18%,-10,10
N#Cc1c(N2C(=O)C3C4C=CC(C4)C3C2=O)sc2c1CCC2 (stereo not given),-5.0%,20%,2.1,-5%,16%,0,-2
CC(OC(=O)c1ccc(S(=O)(=O)N(C)c2ccccc2)cc1)C(=O)NCCC1=CCCCC1 (stereo not given),-3.3%,2%,-0.6,1%,-5%,-4,-7
CN(Cc1ccccc1)C(=O)[C@@H]1CCCN1S(=O)(=O)c1ccc(Cl)cc1,.,14%,-1.8,14%,11%,7,5
C[C@]12CCC(O)CC1CCC1C2CC[C@]2(C)C(c3cc(C(F)(F)F)n[nH]3)CCC12 (stereo not given in full),0.5%,10%,6.0,-15%,4%,2,?
Cc1ccc(S(=O)(=O)N2[C@@H](c3ccc(C#N)cc3)C(C(=O)O)=C[C@H]2CC2CCCC2)cc1,2.6%,.,.,.,-22%,17,.
CCn1c(SCC(=O)N/N=C/C=C/c2ccco2)nnc1-c1ccccc1,-3.1%,-29%,16,-57%[inhibitor],-2%,-17,9
CNS(=O)(=O)c1cccc(C(=O)OCC(=O)NC2CCCC2)c1,-1.4%,1%,-0.7,-25%,-7%,-2,?

# Next structures:
SMILES,ClpP mod,Sfp inh,Menin MLL FP FL,gsp ag,gsp antagonist,TRPML1 inh,TRPV1 potentiator
CC1=Nn2c(nnc2-c2ccc(F)cc2)SC1,-0.3%,-4%,0.2,5%,6%,-12,?
Cc1ccc(COc2ccsc2C(=O)NNC(N)=S)cc1,.,12%,3.8,2%,-2%,-13,-17
COc1cc(C(=O)NCC2CCCO2)cc(OC)c1OC (stereo not given),-4.2%,17%,0.7,15%,11%,1,0
Cc1cc(C(=O)N2CCN(S(C)(=O)=O)CC2)cs1,-1.9%,7%,-4.3,9%,6%,7,-4
COc1ccc(CNCCS(=O)(=O)NC2CCCCC2)cc1,0.6%,.,.,.,9%,0,.
O=C(C1CCN(S(=O)(=O)c2cnc[nH]2)CC1)N1CCN(Cc2ccc3c(c2)OCO3)CC1,-0.7%,12%,1.1,-28%,12%,11,-1
O=C1NN(c2ccc(Cl)cc2)C(=O)/C1=C\c1ccc(-c2cccc(C(=O)O)c2)o1,.,-3%,17,9%[15.4 µM],0%,4,15
CCOC(=O)C(NC(C)=O)C(=O)Nc1ccc(C(C)C)cc1 (stereo not given),.,2%,-1.2,-4%[15.4 µM],8%,12,-5
CCCSCCCNC(=O)c1ccccc1NC(=O)C1=CSCCO1,0.3%,5%,.,2%,-19%,-9,1
COc1ccc([N+](=O)[O-])cc1NC(=O)C(C)OC(=O)CN1C(=O)C2CC=CCC2C1=O (stereo not given),.,.,.,-8%[15.4 µM],-6%,-9,?
CCOc1ccc(CCNC(=O)CCc2nnc3ccc(N4CCCCC4)nn23)cc1OCC,-2.0%,5%,1.9,-24%,-2%,-10,-2
Cc1cc(C)c(S(=O)(=O)c2ccc(F)cc2)c(C)c1,0.8%,.,.,10%,.,24,.
CC(Sc1nnnn1C)C(=O)NC(=O)NC1CCCCC1 (stereo not given),2.6%,17%,-4.8,-1%,1%,16,-15
CCOc1ccc(-c2nn[nH]n2)cc1,-3.5%,2%,3.3,12%,-31%,-8,3
CC(C)CCN(C(=O)c1cc(=O)[nH]c2ccccc12)c1c(N)n(Cc2ccccc2)c(=O)[nH]c1=O,-8.8%,.,.,-8%,-2%,14,3
COc1cc(C(=O)N/N=C/c2cn(Cc3ccccc3)c3ccccc23)ccc1O,-11%,0%,-0.3,-5%[15.4 µM],1%,1,-18
COC(=O)C(C)Oc1cc(OC(C)C(=O)OC)c2c(C)c(Cl)c(=O)oc2c1 (stereo not given),.,2%,-0.5,?,-15%,4,-5
O=C(/C=C/c1cc([N+](=O)[O-])ccc1OC(F)F)Nc1cccc([N+](=O)[O-])c1,0.3%,13%,-6.0,-23%,7%,-13,-14
CC1CC(=O)N(CC(=O)Nc2cccc(F)c2)c2ccccc2S1(=O)=O (stereo not given),0.6%,12%,-12,-20%,-12%,9,-19
CCCOc1ccc(-c2nn(-c3ccccc3)cc2/C=C2\SC(=S)N(C3CCS(=O)(=O)C3)C2=O)cc1 (stereo not given),0.5%,2%,?,25%,5%,-11,-6
Cc1cnc2c(C(=O)O)cnn2c1,.,-28%,-0.9,7%,10%,-8,8
O=C(O)c1ccc(-n2cccc2/C=C2/NC(=O)N(c3ccccc3)C2=O)cc1,-2.9%,-20%,18,-2%,3%,3,-9
COc1cc(F)ccc1S(=O)(=O)n1c(C)nc2ccccc21,0.9%,0%,3.8,-24%,-10%,.,-19
COc1cc(Cn2c(-c3nonc3N)nc3ccccc32)ccc1C,4.8%,?,2.7,-18%,14%,-7,21
Cc1ccccc1NS(=O)(=O)c1cc(C(=O)N2CCCC2)ccc1Cl,0.6%,7%,1.6,-17%,-4%,6,0

# 2 records drawn at random from the list so far:
SMILES,ClpP mod,Sfp inh,Menin MLL FP FL,gsp ag,gsp antagonist,TRPML1 inh,TRPV1 potentiator
COC(=O)C(C)Oc1cc(OC(C)C(=O)OC)c2c(C)c(Cl)c(=O)oc2c1 (stereo not given),.,2%,-0.5,?,-15%,4,-5
CCCOc1ccc(-c2nn(-c3ccccc3)cc2/C=C2\SC(=S)N(C3CCS(=O)(=O)C3)C2=O)cc1 (stereo not given),0.5%,2%,?,25%,5%,-11,-6

# Profiles from above. Order of screens: ClpP mod, Sfp inh, Menin MLL FP FL, gsp ag, gsp antagonist, TRPML1 inh, TRPV1 potentiator
# Shown for CCCOc1ccc(-c2nn(-c3ccccc3)cc2/C=C2\SC(=S)N(C3CCS(=O)(=O)C3)C2=O)cc1 (stereo not given) : 0.5%, 2%, ?, 25%, 5%, -11, -6
# Shown for COc1cc(C(=O)N/N=C/c2cn(Cc3ccccc3)c3ccccc23)ccc1O : -11%, 0%, -0.3, -5%[15.4 µM], 1%, 1, -18
# Shown for CC(Sc1nnnn1C)C(=O)NC(=O)NC1CCCCC1 (stereo not given) : 2.6%, 17%, -4.8, -1%, 1%, 16, -15
# Shown for O=C1NN(c2ccc(Cl)cc2)C(=O)/C1=C\c1ccc(-c2cccc(C(=O)O)c2)o1 : ., -3%, 17, 9%[15.4 µM], 0%, 4, 15

# (list continues)
SMILES,ClpP mod,Sfp inh,Menin MLL FP FL,gsp ag,gsp antagonist,TRPML1 inh,TRPV1 potentiator
COCCn1c(-c2ccccc2F)n[nH]c1=S,-1.3%,-1%,-3.5,15%,9%,-13,-1
CCN=C(NCC)SC1CC(=O)N(CCc2ccccc2)C1=O (stereo not given),.,.,.,-6%[15.4 µM],3%,44,.
CCc1nc(SCc2ccc(Br)cc2)n[nH]1,-3.0%,9%,-0.3,-8%[15.4 µM],-11%,6,-10
Cc1ccc2oc3c(c(=O)c2c1)C(c1cccc(O)c1)N(c1ccccn1)C3=O (stereo not given),1.1%,15%,4.1,-1%,?,1,?
COCCn1nnnc1C(c1cc2cc(C)ccc2[nH]c1=O)N1CCc2ccccc21 (stereo not given),0.4%,50µM*,3.5,-54%[inhibitor],-18%,0,-1
Cc1ccccc1Cn1nc(C)c(NC(=O)C2(C)CC2(Cl)Cl)c1C (stereo not given),-2.4%,19%,-0.7,4%[15.4 µM],2%,21,10
Cc1nc(Nc2ccc(Cl)cc2Cl)sc1C(=O)Nc1ccccc1,.,8%,5.0,-5%[15.4 µM],?,-16,0
Cc1ccc(C)c(CN2C(=O)c3ccccc3S(=O)c3ccc(C(=O)N4CCN(c5ccccn5)CC4)cc32)c1 (stereo not given),.,-4%,-4.2,21%,-19%,27,-5
CCc1ccccc1NC(=O)CC(NCc1ccccc1)C(=O)O (stereo not given),-1.1%,-5%,1.9,-35%[inhibitor],8%,-8,-4
CC(C)C(=O)N1CCN(c2ccc(NC(=O)c3ccc4c(c3)OCCO4)cc2)CC1,-6.6%,13%,6.8,7%[15.4 µM],-5%,7,0
